# TRPML1 agonist: agonists of human TRPML1 channel; activation, % (test concentration not listed); hit rate 0.12% among 410,000; Q9GZU1; TRPML1-expressing cells, Ca2+ dye fluorescence, FDSS; host cell line not named in the record; reference of the full effect not given here; AID 624414; in the data active = activation above about 50%; inconclusive = about 30% to 50%; inactive = below about 30%; note: 0% is about no effect; the text of the record puts the active cut at 80%
# Target sequence (Q9GZU1 whole entry, looked up): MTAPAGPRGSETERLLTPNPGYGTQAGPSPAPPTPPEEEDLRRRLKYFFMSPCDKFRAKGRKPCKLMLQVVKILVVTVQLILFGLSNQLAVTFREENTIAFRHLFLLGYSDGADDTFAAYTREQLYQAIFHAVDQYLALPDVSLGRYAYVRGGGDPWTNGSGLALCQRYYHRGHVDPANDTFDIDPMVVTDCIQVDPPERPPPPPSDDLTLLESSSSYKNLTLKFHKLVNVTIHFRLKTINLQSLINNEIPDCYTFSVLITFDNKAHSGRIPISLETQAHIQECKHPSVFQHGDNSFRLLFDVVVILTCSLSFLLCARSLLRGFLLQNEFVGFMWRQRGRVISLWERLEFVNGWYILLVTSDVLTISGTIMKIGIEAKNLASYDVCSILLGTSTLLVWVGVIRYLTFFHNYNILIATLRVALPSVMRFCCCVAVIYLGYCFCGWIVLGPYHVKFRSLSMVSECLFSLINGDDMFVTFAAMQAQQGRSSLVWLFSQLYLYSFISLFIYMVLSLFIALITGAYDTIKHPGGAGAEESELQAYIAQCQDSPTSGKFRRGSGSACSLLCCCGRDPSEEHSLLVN
#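 Cells: TRPML1-DL, 1X Tet inducer, ~16 h at 37 degrees C/5% CO2. Dye: ABD Ca8 no-wash + quencher, 45-90 min RT. Read: 10 s baseline, compound add, 110 s agonist phase; 54-4 EC80 (4uM final), 110 s antagonist phase.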
# PINK1 modulator: modulators of PINK1 expression; PINK1 immunofluorescence, high-content cytometry, 24 h; Potency, µM (top dose mostly 76.6 µM), inactives show top-dose activation (PINK1 increase), most hits filed as activators; hit rate 0.2% among 410,000; active = well fitted activation curve with a large enough effect; inconclusive = small, poorly fitted or top-dose-only effect; inactive = flat fitted curve, though single readings scatter; cell line not stated here;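 note: potency is the fitted concentration of half-maximal effect; % of control where 0% means no effect; nearly all actives have a fitted effect of over 65% in size; a mitochondrial uncoupler was the plate control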
#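 Stable cell line, 250 cells/well, 12 h attachment; compounds pinned at 5 concentrations, 24 h; CCCP control. Fixed with nuclear dye, primary antibodies 12 h at 10 degrees C, secondary plus cell stain; laser-scanning cytometer read.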
# An asterisk follows results filed as active; ? = inconclusive.
SMILES,TRPML1 agonist,PINK1 modulator
Cc1ccc(Cl)cc1-n1c(=O)c2sc3ccccc3c2n(CC(=O)NC2CCCC2)c1=O,-0.6,3.6%
Cc1ccc(NC(=O)C(c2ccccc2)N2Cc3ccccc3C2=O)cc1Cl (stereo not drawn),0.9,2.8%
Cc1ccc(NC(=O)Cn2cc(S(=O)(=O)N3CCCC3)c(S(=O)(=O)N3CCCC3)c2)cc1F,1.5,2.0%
O=C(c1ccc(F)cc1)N1CCN(CCc2ccncc2)CC1,-0.2,1.1%
O=C(Nc1ccc(F)c(Cl)c1)C1CCN(S(=O)(=O)c2ccc3[nH]c(=O)ccc3c2)CC1,0.9,4.3%
O=C(c1ccc2c(c1)N(Cc1ccc(F)cc1)C(=O)c1ccccc1S2(=O)=O)N1CCCCCC1,-0.7,0.1%
COc1cc(NC(=O)c2cc3nc(-c4ccccc4)cc(-c4ccccc4)n3n2)c(OC)cc1Cl,-0.1,4.1%
COC(=O)c1ccccc1NC(=O)Cn1c(=O)n(CCCC(=O)NCc2ccccc2OC)c(=O)c2ccccc21,0.1,1.0%
CCOc1cc(S(=O)(=O)NCCc2c(C)[nH]c3ccc(C)cc23)ccc1F,5.0,0.8%
COc1ccccc1-c1nc2c(c(SCc3cccc(Cl)c3)n1)Cc1c(CO)cnc(C)c1O2,1.5,-0.3%
Cc1oc(-c2ccc(C(=O)NCc3ccc(Cl)cc3)cc2)nc1CS(=O)(=O)c1ccccc1,-0.1,7.0%
COc1ccccc1CNC(=O)c1ccc2c(c1)N(Cc1cccc(C)c1)C(=O)c1ccccc1S2(=O)=O,-0.3,-0.2%
CCc1cccc(C)c1NC(=O)c1cc(S(=O)(=O)N(C)Cc2ccccc2)ccc1F,3.4,3.4%
CCOc1ccc(-c2nnc(SCC(=O)Nc3ccc(C)cc3C)o2)cc1,-0.8,1.7%
Cc1ccc2occ(-c3cc(-c4ccccc4)nc4c3COc3ccccc3-4)c(=O)c2c1,-0.5,-0.8%
COc1ccc(-c2noc(CNC(=O)COc3cccc(C)c3C)n2)cc1,2.5,-0.1%
COc1cc(C2c3c(oc4ccccc4c3=O)C(=O)N2Cc2ccc(C)cc2)ccc1O (stereo not drawn),0.0,1.6%
CCOc1ccc(CCNC(=O)c2cnc3c(-c4ccc(F)cc4)c(C)nn3c2C)cc1,0.0,0.5%
O=C(OCC1CCCO1)c1ccc2c(c1)N(Cc1ccccc1Cl)C(=O)c1ccccc1S2(=O)=O (stereo not drawn),2.8,3.8%
CCCOc1ccccc1C(=O)N1CCC(c2nc3ccccc3s2)CC1,-1.1,0.4%
CCN1CCN(c2cc(C)c3cc(NC(=O)c4cc(OC)c(OC)c(OC)c4)ccc3n2)CC1,0.7,8.1%
Cc1cccc(N2CCN(S(=O)(=O)c3ccc4c(c3)C(C(C)C)C(=O)N4)CC2)c1C (stereo not drawn),1.9,?
CCSc1ncc(Cl)c(C(=O)N(Cc2ccccc2)Cc2ccco2)n1,1.8,2.1%
COc1cc(C2C(=O)N(C3CCCCCC3)CC(=O)N2Cc2ccccc2)ccc1OC(C)C (stereo not drawn),0.3,6.9%
CCCc1cnc2c(c1SCC(=O)Nc1cccc(C)c1C)c(=O)n(C)c(=O)n2C,-0.5,2.3%
CCOc1ccc(S(=O)(=O)NCC(c2ccco2)S(=O)(=O)c2cccs2)cc1 (stereo not drawn),0.3,0.2%
CCCn1c(=N)c(C(=O)NC2CCCC2)cc2c(=O)n3cc(C)ccc3nc21,-0.9,-1.0%
Cc1ccc(NC(=O)c2oc3ccc(S(=O)(=O)N4CCCCC4)cc3c2C)cc1Cl,-0.2,0.4%
COc1ccc(NC(=O)c2cc(C)nc3c2c(C)nn3-c2cccc(Cl)c2C)c(OC)c1,-0.7,1.4%
COC(=O)CCN(c1ccccc1)C(CNS(=O)(=O)c1ccccc1)c1ccccc1 (stereo not drawn),3.5,0.5%
COc1ccc(Cn2ccnc2SCC(=O)NCc2ccco2)cc1,-0.1,-5.8%
Cc1ccc(C)c(OC(=O)CSc2nnc(-c3ccc4c(c3)OCO4)o2)c1,0.2,-0.5%
CC1CN(C(=O)N2CCC(C(=O)NCCC3=CCCCC3)CC2)c2ccccc2O1 (stereo not drawn),0.2,-2.3%
COc1ccc(CN2CCc3nc(SCC(=O)Nc4cc(C)cc(C)c4)[nH]c(=O)c3C2)cc1,-0.1,-0.6%
CSc1ccc(CNC(=O)c2ccc(NC(=O)c3nsc4ccccc34)cc2)cc1,0.6,7.8%
CCCCN(CCCNC(=O)c1cc(Nc2ccc(OC)c(OC)c2)nc2ccccc12)c1ccccc1,4.3,7.2%
O=C(Nc1sc2c(c1C(=O)Nc1cccc(Cl)c1)CCCC2)c1cccs1,1.4,0.2%
Cc1cc(SCC(=O)c2ccc(Br)cc2)cc(C)[o+]1,-0.3,0.1%
CCOc1cc(C#N)c(NC(=O)c2cccc(S(=O)(=O)N3CCOCC3)c2)cc1OCC,3.1,3.3%
Cc1nn(CC(=O)NCc2ccccc2Cl)c(=O)c2nn(-c3ccccc3)c(C)c12,-0.8,-0.8%
Cc1cccn2c(=O)c(C(=O)NCCc3ccc(S(N)(=O)=O)cc3)c(O)nc12,-0.4,-0.7%
CCN(C(=O)Cc1c(C(=O)O)c(C)cn1C)c1cccc(Cl)c1,0.8,-1.4%
Cc1cc(C)cc(NC(=O)Cn2c(-c3cncs3)nc3ccccc32)c1,2.0,-0.9%
Cc1nc2ccc(S(=O)(=O)N(CC(=O)Nc3cccc(Cl)c3)Cc3ccccc3)cc2s1,4.8,-0.1%
CCOc1ccc(C2C(C(=O)Nc3ccccc3C)=C(C)Nc3nnnn32)cc1 (stereo not drawn),-0.5,3.6%
COc1cccc(-n2nnc(-c3nc(-c4cccs4)no3)c2N)c1,0.4,-0.9%
CCOC(=O)c1c(NC(C)=O)c2c3c(sc2n1Cc1nc(-c2ccccc2C)oc1C)CCCC3,0.6,1.2%
Cc1nn(C(=O)c2ccccc2F)c(C)c1S(=O)(=O)N1CCCCCC1,0.3,0.5%
CC1CCN2c3ccccc3CC3(C(=O)OC(C)(C)OC3=O)C2C1 (stereo not drawn),-0.7,0.3%
COc1ccccc1C(=O)Nc1ccc(NC(=O)c2cccs2)cc1,1.7,-0.6%
CCc1ccc2oc(-c3ccc(NC(=O)c4cccc(Cl)c4Cl)cc3)nc2c1,0.0,12%
Cn1ccc2cc(S(=O)(=O)N3CCCN(C(=O)Nc4ccccc4Br)CC3)ccc21,3.4,0.2%
O=C(c1ccc(C(F)(F)F)cc1)N1CCC(c2nc(-c3ccc(S(=O)(=O)N4CCCC4)cc3)no2)CC1,-0.4,2.3%
COc1cc2c(cc1OC)C(COc1ccc3c(C)cc(=O)oc3c1)N(C(=O)c1cccc(OC)c1OC)CC2 (stereo not drawn),-0.7,1.7%
O=S(=O)(Nc1cccc(-c2ccc(N3CCCCC3)nn2)c1)c1cccc(F)c1,2.7,0.9%
Cc1ccc(CN2C(=O)C(O)(CC(=O)c3ccc(C)cc3)c3ccccc32)cc1 (stereo not drawn),-0.3,1.2%
CCc1ccc(-n2nc(CO)c(C(=O)NCC(c3ccccc3)c3ccccc3)n2)cc1,1.8,-0.3%
COC(=O)c1c(C)sc(-c2c(-c3cccc(OC)c3)[nH]c3c2c(=O)[nH]c(=O)n3C)c1O,3.0,2.6%
Cc1ccc(OCc2nnc(-c3ccccc3)o2)cc1,1.5,1.0%
O=C(CCNS(=O)(=O)c1ccc2c(c1)CCN2C(=O)C1CC1)N1CCN(c2cccc(Cl)c2)CC1,3.4,-5.1%
# Other entries follow:
SMILES,TRPML1 agonist,PINK1 modulator
Cc1ccccc1C(=O)Nc1sc2c(c1C(=O)N1CCCCC1)CCC(C(C)(C)C)C2 (stereo not drawn),-0.4,0.6%
COc1ccc2nc3sc(C(=O)N4CCN(c5ccccc5)CC4)cc3cc2c1,-1.0,0.6%
O=C(Cc1csc2ccccc12)NCc1ccccc1F,1.4,0.2%
Cc1nc(-n2nc(C)c(Cc3ccc(Cl)cc3)c2C)sc1C(=O)N1CCC(C)CC1,-0.4,2.0%
Cc1ccc(C2=CC(c3ccccc3F)n3c(nc4ccccc43)N2)cc1C (stereo not drawn),3.5,5.6%
Cc1ccc(Nc2c(-c3c[nH]c4ccccc34)nc3ccccn23)cc1,0.1,11%
COc1ccccc1NS(=O)(=O)c1cn(C)c(C)n1,-0.3,-4.4%
CCc1ccc2oc(C(=O)Nc3nc(-c4ccc(F)cc4)ns3)c(C)c2c1,21,3.2%
O=C(NCCc1ccc(Cl)cc1)c1ccc(CS(=O)(=O)Cc2ccccc2F)o1,2.2,0.0%
Cc1ccc(-n2ncc(C(=O)N3CCN(C4CCCCC4)CC3)c2C2CCN(C(=O)OC(C)(C)C)CC2)cc1,-0.7,3.5%
CCOc1cc(C2C(C(=O)Nc3ccc(OC)cc3)=C(C)Nc3nc(SC)nn32)ccc1O (stereo not drawn),1.0,1.7%
COc1ccc(CCN2C(=O)N(c3ccc(F)cc3)C(=O)C2CC(=O)Nc2ccccc2)cc1OC (stereo not drawn),0.1,-0.1%
COCCCNC(=O)Cn1c(=O)n(-c2ccc(C)cc2)c(=O)c2c1c1cc(C)ccc1n2C,0.5,1.9%
Cc1nc(-n2nc(C)c(CCC(C)C)c2C)sc1C(=O)Nc1cccc(Cl)c1,0.1,0.9%
COc1ccc(-c2noc(-c3ccc(NCCc4ccccc4)c([N+](=O)[O-])c3)n2)cc1,0.4,0.7%
O=C(Cn1ncc2c3ccccc3n(Cc3ccc(Cl)cc3)c2c1=O)NC1CCCCCC1,-0.3,1.0%
CCc1ccc(-n2nc3ccc(NC(=O)c4cc(Cl)c(OC)c(Cl)c4)cc3n2)cc1,-0.6,3.4%
COc1ccc(NC(=O)C2CCN(c3cc(C)nc4c(-c5ccc(Cl)cc5)c(C)nn34)CC2)cc1,0.7,0.8%
COc1ccc(-c2nc3c(c(SCC(=O)Nc4ccccc4OC)n2)Cc2cccc(C)c2O3)cc1,-0.5,-0.1%
CCOc1ccc(CCNC(=O)C2CCN(Cc3nc(-c4ccccc4C)oc3C)CC2)cc1OCC,-0.2,0.0%
CCOc1ccccc1NC(=O)C1CCN(S(=O)(=O)c2ccccc2)CC1,-0.8,-0.2%
CCOCN(C(=O)Cn1c(C)nc2ccccc21)c1c(C)cccc1CC,-0.9,-1.4%
CC(=O)C[n+]1cccc2cc(Cl)ccc21,5.5,0.5%
COc1cccc(NC(=O)C2CCCN(S(=O)(=O)c3ccc4[nH]c(=O)ccc4c3)C2)c1 (stereo not drawn),-0.7,-1.5%
Cc1ccc(-c2cc3ncc4c(n3n2)-c2ccccc2OC4)cc1,0.2,1.0%
Cc1ccc(Nc2nc(NCc3ccco3)nc3nccnc23)c(C)c1,-0.3,-0.3%
Cc1c(C)n(C)c2ccc(C(=O)NCCc3ccc(Cl)cc3)cc12,3.8,-0.6%
COc1ccc(-c2nc(SCC(=O)Nc3ccc4c(c3)OCO4)c(-c3ccc(F)cc3)[nH]2)cc1OC,1.5,9.4%
COc1ccc(C(=O)NCC(c2ccco2)S(=O)(=O)c2cccs2)cc1OC (stereo not drawn),1.1,1.8%
COc1ccc(CC(=O)NCc2ccc3c(c2)CCN3C(=O)c2cccc(C)c2)cc1,0.1,-0.2%

# An excerpt from the list above, for reference:
SMILES,TRPML1 agonist,PINK1 modulator
COc1ccc(C(=O)NCC(c2ccco2)S(=O)(=O)c2cccs2)cc1OC (stereo not drawn),1.1,1.8%
COc1ccc(CC(=O)NCc2ccc3c(c2)CCN3C(=O)c2cccc(C)c2)cc1,0.1,-0.2%

# Compounds above that have an NH in an aromatic ring:
SMILES,TRPML1 agonist,PINK1 modulator
O=C(Nc1ccc(F)c(Cl)c1)C1CCN(S(=O)(=O)c2ccc3[nH]c(=O)ccc3c2)CC1,0.9,4.3%
CCOc1cc(S(=O)(=O)NCCc2c(C)[nH]c3ccc(C)cc23)ccc1F,5.0,0.8%
COc1ccc(CN2CCc3nc(SCC(=O)Nc4cc(C)cc(C)c4)[nH]c(=O)c3C2)cc1,-0.1,-0.6%
COC(=O)c1c(C)sc(-c2c(-c3cccc(OC)c3)[nH]c3c2c(=O)[nH]c(=O)n3C)c1O,3.0,2.6%
Cc1ccc(Nc2c(-c3c[nH]c4ccccc34)nc3ccccn23)cc1,0.1,11%
COc1cccc(NC(=O)C2CCCN(S(=O)(=O)c3ccc4[nH]c(=O)ccc4c3)C2)c1 (stereo not drawn),-0.7,-1.5%
COc1ccc(-c2nc(SCC(=O)Nc3ccc4c(c3)OCO4)c(-c3ccc(F)cc3)[nH]2)cc1OC,1.5,9.4%

# (continued)
SMILES,TRPML1 agonist,PINK1 modulator
O=C(Nc1nnc(SCc2cc(=O)n3cc(Cl)ccc3n2)s1)c1cccc(F)c1,0.6,?
Cc1ccc(C)c(N2CCN(CCCNC(=O)Cn3c(-c4cccs4)cc4ccccc43)CC2)c1,-0.3,12%
Cn1c(=O)oc2cc(S(=O)(=O)N3CCCC(C(=O)N4CCN(c5ccc(Cl)cc5)CC4)C3)ccc21 (stereo not drawn),-0.3,0.0%
Cc1ccc(CNC(=O)c2cccc(-n3cnc4cccnc43)c2)cc1,2.4,0.2%
CCC(Cn1nnc2ccccc2c1=O)NC(=O)Nc1ccccc1Cl (stereo not drawn),-0.9,-0.9%
Cc1cccc(Cn2c(SCc3ccc(C(=O)NCCc4ccccc4)cc3)nc3cccnc32)c1,2.4,4.1%
CC(C)c1ccc(OCC(=O)N(Cc2ccc(N(C)C)cc2)C2CCS(=O)(=O)C2)cc1 (stereo not drawn),0.5,-1.0%

# Screens deposited in PubChem BioAssay by National Center for Advancing Translational Sciences (NCATS).

# Not all compounds are listed. The share of hits here may be higher or lower than overall.
